Compound activity from PubChem.
Vaccinia inh = blocks a specific stage of Vaccinia orthopoxvirus infection | AID 1053133 | Vaccinia-infected cells, mCherry/Venus stage reporter fluorescence; hits give low values; some inactives read as strong as hits | 89,000 compounds, 0.01% hits | activity change (mCherry), % (no concentration beside the values);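 active = mCherry past -33% and 40 or more points under the early reporter, replicates agreeing; inconclusive = past -33% without that gap or agreement; tested in A549 cells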;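 note: scaled between vehicle wells and reference inhibitor wells; 23 nL library stock went into each well; one replicate is shown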
Vaccinia inh Venus = second read-out of Vaccinia inh, no call of its own (marks repeat the call); activity change (Venus), %; measured here: Venus reporter, other viral stage;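 negative = less Venus signal; first of two replicates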
Numbers without * were called inactive; ? = inconclusive; · = not tested or not shown.

Start of the listing, in advance:
SMILES | Vaccinia inh | Vaccinia inh Venus
C[C@@H]1CN([C@H](C)CO)C(=O)c2cc(C#C[C@@H](C)O)cnc2O[C@@H]1CN(C)C(=O)c1ccccc1F | 3 | 7
Cc1ccc(S(=O)(=O)Nc2ccc3c(c2)C(=O)N([C@H](C)CO)C[C@@H](C)[C@H](CN(C)C(=O)CCC(F)(F)F)OCCCC[C@@H](C)O3)cc1 | -16 | -14
CNC[C@@H]1[C@H](c2ccccc2)[C@H](CO)N1C(=O)Nc1cccc(OC)c1 | 6 | 11

All compounds of this part (from the top)
SMILES | Vaccinia inh | Vaccinia inh Venus
C[C@@H]1CN([C@H](C)CO)C(=O)c2cc(C#C[C@@H](C)O)cnc2O[C@@H]1CN(C)C(=O)c1ccccc1F | 3 | 7
Cc1ccc(S(=O)(=O)Nc2ccc3c(c2)C(=O)N([C@H](C)CO)C[C@@H](C)[C@H](CN(C)C(=O)CCC(F)(F)F)OCCCC[C@@H](C)O3)cc1 | -16 | -14
CNC[C@@H]1[C@H](c2ccccc2)[C@H](CO)N1C(=O)Nc1cccc(OC)c1 | 6 | 11
CN1CCN(C(=O)C[C@@H]2CC[C@@H]3[C@H](COC[C@H](O)CN3C(=O)Nc3ccc(Cl)cc3)O2)CC1 | 6 | -5
COc1ccc(NC(=O)Nc2cccc3c2O[C@@H](CN(C)C(=O)Nc2ccc4c(c2)OCO4)[C@@H](C)CN([C@@H](C)CO)C3=O)cc1 | 9 | -13
O=C(C[C@@H]1C=C[C@H](NC(=O)Nc2ccc3c(c2)OCO3)[C@H](CO)O1)NCc1ccc(F)cc1 | 0 | 5
COc1ccccc1S(=O)(=O)N(C)C[C@@H]1OCc2ccccc2-c2c(n(C)c3ccccc23)C(=O)N([C@H](C)CO)C[C@H]1C | -31 | -28
C[C@@H]1CN([C@@H](C)CO)C(=O)c2cccc(NS(=O)(=O)c3cn(C)cn3)c2O[C@@H]1CN(C)C | 10 | 7
O=C(NC[C@@H]1[C@@H](c2ccccc2)[C@@H](CO)N1C(=O)Cc1ccncc1)C1CCC1 | -4 | -10
Cc1ccc(S(=O)(=O)N[C@@H]2CC[C@@H](CCNC(=O)C3CCC3)O[C@H]2CO)cc1 | 5 | 3

The final five records of the part before lead into the next.
SMILES | Vaccinia inh | Vaccinia inh Venus
O=C(C[C@@H]1C=C[C@H](NC(=O)Nc2ccc3c(c2)OCO3)[C@H](CO)O1)NCc1ccc(F)cc1 | 0 | 5
COc1ccccc1S(=O)(=O)N(C)C[C@@H]1OCc2ccccc2-c2c(n(C)c3ccccc23)C(=O)N([C@H](C)CO)C[C@H]1C | -31 | -28
C[C@@H]1CN([C@@H](C)CO)C(=O)c2cccc(NS(=O)(=O)c3cn(C)cn3)c2O[C@@H]1CN(C)C | 10 | 7
O=C(NC[C@@H]1[C@@H](c2ccccc2)[C@@H](CO)N1C(=O)Cc1ccncc1)C1CCC1 | -4 | -10
Cc1ccc(S(=O)(=O)N[C@@H]2CC[C@@H](CCNC(=O)C3CCC3)O[C@H]2CO)cc1 | 5 | 3
C[C@H](CO)N1C[C@H](C)[C@@H](CN(C)C(=O)c2ccncc2)OCCCC[C@H](C)Oc2ccc(NS(=O)(=O)c3ccc(F)cc3)cc2C1=O | 35 | 25
CC(=O)N1CC(=O)N2[C@H](C1)[C@H](c1ccc(C#Cc3cccnc3)cc1)[C@@H]2CO | 13 | 8
C[C@@H]1CN([C@H](C)CO)C(=O)c2cc(NC(=O)Nc3ccc4c(c3)OCO4)ccc2O[C@@H]1CN(C)Cc1ccc(-c2ccccc2)cc1 | ? | ·
O=C(NC[C@H]1CC[C@H]2[C@H](CN2Cc2cccc(Cl)c2)O1)C1CC1 | 5 | 6
O=C(C[C@@H]1CC[C@@H](NC(=O)NC2CCCCC2)[C@@H](CO)O1)NCc1ccc(F)cc1 | -8 | 7
Cc1noc(C)c1NC(=O)N(C)C[C@@H]1Oc2ncc(C#CC(C)(C)O)cc2C(=O)N([C@H](C)CO)C[C@@H]1C | 3 | -4
COCC#Cc1cnc2c(c1)C(=O)N([C@H](C)CO)C[C@H](C)[C@@H](CN(C)C(=O)Cc1ccncc1)O2 | 15 | 10
C[C@@H]1CCCCO[C@@H](CN(C)C(=O)Nc2ccc3c(c2)OCO3)[C@H](C)CN([C@H](C)CO)C(=O)c2cc(NC(=O)CCCN(C)C)ccc2O1 | 2 | -1
Cc1ccc(S(=O)(=O)N(C)C[C@H]2Oc3ccc(NS(=O)(=O)c4ccc(Cl)cc4)cc3CC(=O)N([C@@H](C)CO)C[C@@H]2C)cc1 | 3 | 10
CCCNC(=O)N[C@H]1CC[C@H](CC(=O)NCCc2ccccc2)O[C@@H]1CO | 11 | 11
COc1ccc(NC(=O)N(C)C[C@@H]2OCCCC[C@H](C)Oc3ccc(NC(=O)C4CCCCC4)cc3C(=O)N([C@H](C)CO)C[C@@H]2C)cc1 | -17 | -9
COCC(=O)N1CC(=O)N2[C@H](CO)[C@@H](c3ccc(Br)cc3)[C@H]2C1 | 15 | -2
CCCC#Cc1cnc2c(c1)C(=O)N([C@H](C)CO)C[C@H](C)[C@@H](CN(C)C(=O)c1ccc3c(c1)OCO3)O2 | -1 | -4
O=C(NCC[C@H]1CC[C@H](NC(=O)C2CC2)[C@H](CO)O1)c1ccc(F)cc1 | -6 | 1
C[C@@H]1CN([C@@H](C)CO)C(=O)c2cccc(NS(=O)(=O)c3cn(C)cn3)c2O[C@H]1CN(C)S(=O)(=O)c1cccs1 | -2 | -3
COc1ccc(CN(C)C[C@@H]2Oc3ccc(NC(=O)C4CC4)cc3C(=O)N([C@@H](C)CO)C[C@H]2C)cc1 | 2 | -6
C[C@H](CO)N1C[C@H](C)[C@@H](CN(C)C(=O)c2ccccc2F)Oc2ncc(-c3cccnc3)cc2C1=O | -12 | -12
C[C@@H]1CN([C@H](C)CO)C(=O)c2cc(-c3ccc(F)cc3)cnc2O[C@H]1CN(C)S(C)(=O)=O | 22 | 13
C[C@@H]1CN([C@H](C)CO)C(=O)c2cccc(NS(C)(=O)=O)c2O[C@H]1CN(C)Cc1ccc(Oc2ccccc2)cc1 | 8 | -1
CN(C)C(=O)c1cccc(-c2ccc3c(c2)[C@H]2[C@H](CCN2Cc2nccs2)[C@@H](CO)N3)c1 | -1 | 3
C[C@@H]1CN([C@@H](C)CO)C(=O)c2cc(-c3ccccc3)cnc2O[C@@H]1CN(C)C(=O)Nc1ccccc1F | 21 | 3
C[C@H](O)C#Cc1cnc2c(c1)C(=O)N([C@H](C)CO)C[C@H](C)[C@H](CN(C)C(=O)c1ccncc1)O2 | 23 | 16
COCC(=O)N(C)C[C@H]1Oc2ncc(C#Cc3ccccc3)cc2C(=O)N([C@@H](C)CO)C[C@H]1C | 17 | 16
COc1ccc(S(=O)(=O)N(C)C[C@@H]2Oc3ccc(NC(=O)Nc4c(C)noc4C)cc3C(=O)N([C@H](C)CO)C[C@@H]2C)cc1 | 16 | 8
C[C@H](CO)N1C[C@H](C)[C@H](CN(C)C)Oc2cc(-c3cncnc3)ccc2S1(=O)=O | 14 | 6
COc1ccc(S(=O)(=O)Nc2ccc3c(c2)C(=O)N([C@H](C)CO)C[C@@H](C)[C@H](CN(C)Cc2ccc(C(F)(F)F)cc2)O3)cc1 | 1 | 2
O=C(O)[C@H]1[C@H](CO)[C@H]2Cn3c(ccc(-c4ccc(F)cc4)c3=O)[C@@H]1N2CC1CCCCC1 | 17 | 12
COCC(=O)N1[C@@H]2CN(C(=O)c3cccc(OC)c3)c3ccccc3[C@@H]2[C@@H]1CO | 13 | 14
COc1ccc2c3c([nH]c2c1)[C@H](CO)N(C(=O)c1cccnc1)CC31CN(Cc2ccccc2)C1 | -6 | -9
C[C@H](CO)N1C[C@H](C)[C@H](CN(C)C(=O)Nc2ccc(C(F)(F)F)cc2)Oc2ccc(NC(=O)Cn3cnnn3)cc2CC1=O | -3 | -4
COc1ccc(CN(C)C[C@@H]2Oc3c(NC(=O)C4CCOCC4)cccc3C(=O)N([C@@H](C)CO)C[C@H]2C)cc1 | 18 | 13
C[C@@H]1CCCCO[C@H](CN(C)S(=O)(=O)c2cn(C)cn2)[C@@H](C)CN([C@@H](C)CO)C(=O)c2cc(NC(=O)CCC(F)(F)F)ccc2O1 | 27 | 19
CC(C)NC(=O)Nc1ccc2c(c1)CC(=O)N([C@H](C)CO)C[C@@H](C)[C@@H](CN(C)C(=O)NC(C)C)O2 | 13 | 8
Cc1noc(C)c1NC(=O)N(C)C[C@H]1Oc2ccc(NS(=O)(=O)c3ccc(F)cc3)cc2CC(=O)N([C@@H](C)CO)C[C@H]1C | 1 | 20
CCCC#Cc1ccc([C@@H]2[C@H]3CN(S(=O)(=O)CC)CCCCN3[C@H]2CO)cc1 | 5 | -7
O=C(NCC1CCCCC1)[C@@H]1[C@@H](CO)[C@@H]2Cn3c(cccc3=O)[C@@H]2N1C(=O)CC1CC1 | 8 | 5
C[C@H](CO)N1C[C@H](C)[C@H](CN(C)Cc2ccccn2)Oc2ncc(C#CC3(O)CCCC3)cc2C1=O | 19 | 18
Cc1cccc(-c2ccc([C@H]3[C@@H](CO)N4C(=O)CN(C(=O)c5ccccc5)C[C@@H]34)cc2)c1 | -7 | -3
C[C@@H]1CN([C@H](C)CO)C(=O)c2cc(/C=C/c3ccccc3)cnc2O[C@@H]1CN(C)C(=O)C1CCOCC1 | 16 | 10
CO[C@H]1CN(C)C(=O)c2ccc(NC(C)=O)cc2OC[C@H](C)N(S(C)(=O)=O)C[C@@H]1C | 3 | 5
COc1ccc(NC(=O)Nc2cccc3c2O[C@H](CN(C)Cc2ccc4c(c2)OCO4)[C@H](C)CN([C@H](C)CO)C3=O)cc1 | -5 | -7
COCC(=O)N1[C@@H](C#N)[C@H](c2ccccc2-c2ccccc2F)[C@@H]1CO | 18 | 3
C[C@@H]1CCCCO[C@@H](CN(C)C(=O)CCC(F)(F)F)[C@@H](C)CN([C@H](C)CO)C(=O)c2cc(NC(=O)Nc3ccc(F)cc3)ccc2O1 | 27 | 15
COc1ccc(NC(=O)N(C)C[C@H]2Oc3ccc(NS(=O)(=O)c4ccc(Cl)cc4)cc3CC(=O)N([C@@H](C)CO)C[C@H]2C)cc1 | 12 | 6
CN(C)C(=O)C[C@H]1CC[C@H](NC(=O)Nc2cccc(F)c2)[C@@H](CO)O1 | 9 | 3
CCCC(=O)Nc1ccc2c(c1)C(=O)N(C)C[C@@H](OC)[C@@H](C)CN(C)[C@@H](C)CO2 | -4 | 5
O=C(C[C@@H]1CC[C@H](NC(=O)CC2CC2)[C@H](CO)O1)NCc1ccc(-c2ccccc2)cc1 | -13 | -7
C[C@H](CO)N1C[C@H](C)[C@@H](CN(C)C)Oc2c(NS(=O)(=O)c3ccc(F)cc3)cccc2C1=O | 15 | 6
COc1ccc(-c2cnc3c(c2)C(=O)N([C@@H](C)CO)C[C@H](C)[C@@H](CN(C)C(=O)C2CCC2)O3)cc1 | -9 | -4
CN(C)CCCNC(=O)C[C@H]1CC[C@H]2[C@H](COc3ccc(NC(=O)c4ccccc4F)cc3C(=O)N2C)O1 | 24 | 3

Next section:
SMILES | Vaccinia inh | Vaccinia inh Venus
C[C@H]1CN([C@@H](C)CO)C(=O)c2cc(NS(C)(=O)=O)ccc2O[C@@H]1CN(C)CC1CCCCC1 | 9 | 8
CN(C)CCCNC(=O)C[C@H]1CC[C@@H]2[C@H](COC[C@@H](O)CN2C(=O)c2ccncc2)O1 | 6 | 6
COCCNC(=O)C[C@H]1C[C@@H]2c3cc(NS(=O)(=O)c4ccccc4)ccc3O[C@@H]2[C@@H](CO)O1 | -6 | -4
COc1cccc(S(=O)(=O)N(C)C[C@@H]2Oc3ncc(C#CC(C)C)cc3C(=O)N([C@@H](C)CO)C[C@@H]2C)c1 | 1 | -11
CC(C)NC(=O)N(C)C[C@H]1Oc2ccc(NC(=O)NC3CCCCC3)cc2C(=O)N([C@H](C)CO)C[C@@H]1C | 11 | 6
C[C@H](NC(=O)C[C@@H]1CC[C@@H]2[C@H](COc3ccc(NS(=O)(=O)c4ccc(Cl)cc4)cc3C(=O)N2C)O1)c1ccccc1 | 1 | 1
Cc1noc(C)c1S(=O)(=O)Nc1ccc2c(c1)C(=O)N([C@@H](C)CO)C[C@H](C)[C@@H](CN(C)Cc1ccc(C(=O)O)cc1)O2 | 15 | 12
O=C(C[C@H]1C[C@@H]2c3cc(NC(=O)C4CCOCC4)ccc3O[C@@H]2[C@H](CO)O1)NCc1cccnc1 | 18 | 13
CCCN1[C@@H]2c3ccc(C4=CCCC4)c(=O)n3C[C@H]1[C@H](CO)[C@H]2C(=O)NCc1ccccn1 | 3 | 7
COc1ccc(CN(C)C[C@@H]2Oc3ccc(NS(=O)(=O)c4ccc(F)cc4)cc3C(=O)N([C@H](C)CO)C[C@H]2C)cc1 | 5 | 6
COc1ccc(NC(=O)Nc2ccc3c(c2)C(=O)N([C@@H](C)CO)C[C@H](C)[C@@H](CN(C)C(=O)C2CCCCC2)OCCCC[C@@H](C)O3)cc1 | -30 | -20
O=C(CCN1CCCCC1)N[C@@H]1CC[C@H](CCn2cc(-c3ccc(F)cc3)nn2)O[C@H]1CO | 1 | 5
CO[C@H]1CN(C)C(=O)c2ccc(NC(=O)C3CC3)cc2OC[C@@H](C)N(Cc2nccs2)C[C@@H]1C | -9 | -6
C=CC1c2cc(O)c(OC)cc2CCN1Cc1sc2ccccc2c1Cl (stereo not given) | 0 | 5
C[C@@H]1CN([C@H](C)CO)S(=O)(=O)c2ccc(-c3ccc(C#N)cc3)cc2O[C@H]1CN(C)C(=O)Nc1cc(F)ccc1F | ? | -17
O=C(C[C@@H]1C=C[C@H](NC(=O)c2ccc(F)cc2)[C@H](CO)O1)NCc1ccncn1 | -4 | 1
C[C@@H]1CCCCO[C@@H](CN(C)S(=O)(=O)c2ccc(Cl)cc2)[C@@H](C)CN([C@@H](C)CO)C(=O)c2cc(NC(=O)Nc3ccccc3)ccc2O1 | 16 | 12

A portion of the library; count on the stated rates, not on these rows.
